CtBP-E1A inh: qHTS Assay for Inhibitors of the CtBP/E1A Interaction. CtBP / adenovirus E1A interaction (AlphaScreen). AlphaScreen GST-E1A/His-CtBP binding, 1536-well; hits give low values; control for the full effect not named in the record. activity change, % (concentration not given with the values). hit rate 0.49% among 340,000; in the data active means activity change below about -65%; inconclusive means about -30% to -65%; inactive means above about -30%; also: % is scaled to controls: 0 for no effect and ±100 for the full control effect
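In 5 uL wells, 23 nL compound meets equimolar GST-E1A and His-CtBP (5X stock 125 nM each) for 2 h, 37 °C. Beads (5X, 50 ug/mL) then 1 h, 37 °C, dark.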
Sfp PPTase inh: qHTS Assay for Inhibitors of Bacillus subtilis Sfp phosphopantetheinyl transferase (PPTase) | Potency, µM, for the others: max response, negative = inhibition, usual class: inhibitors | 4'-phosphopantetheinyl transferase ffp (Bacillus subtilis), Q9F4F7 | Biochemical Sfp PPTase activity, qHTS | hit rate 3.5% among 310,000; active = well fitted inhibition curve with a large enough effect; inconclusive = small, poorly fitted or top-dose-only effect, or another doubt; inactive = no such curve, though single readings can be large or run the other way;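 also: the enzyme is Sfp with the accession as filed and its product quenches rhodamine fluorescence; potency is read from the fitted curve at half-maximal effect; 0% = enzyme reaction without inhibitor and -100% = no enzyme wells; top concentration of the series not given in the record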
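Step 1, compound plus 15 nM Sfp-PPTase, 15 min, room temperature. Step 2, add rhodamine-CoA (5 uM) and BHQ-2-YbbR (12.5 uM). Step 3, read 525/598 nm fluorescence at 0 and 30 min.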
Menin-MLL FL inh: qHTS Assay for Inhibitors Targeting the Menin-MLL Interaction in MLL Related Leukemias: Competition With Fluorescein Labeled MLL-derived Peptide | FP activity change, % at 61.4 µM | Fluorescence polarization, fluorescein-MLL peptide displacement from menin | 290,000 tested, under 10 active; inconclusive = falling polarisation curve, or a change in total fluorescence; inactive = total fluorescence flat and polarisation flat or rising; no compound was filed as active; the % refers to the polarisation; negative = inhibition;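 also: % of control where 0% means no effect; inhibitors lower the polarisation; unlabelled MLL peptide was the positive control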
gsp agonist: qHTS for Agonist of gsp, the Etiologic Mutation Responsible for Fibrous Dysplasia/McCune-Albright Syndrome: qHTS | AID 624287, 2012 | gsp mutant cells, cAMP HTRF, 30 min; control for the full effect not named in the record | Potency, µM (top dose mostly 76.9 µM), inactives show at the highest dose activation (cAMP increase), actives largely listed as activators | hit rate 0.13% among 340,000; active = well fitted activation curve with a large enough effect; inconclusive = small, poorly fitted or top-dose-only effect, or another doubt; inactive = no such curve, though single readings can be large or run the other way; cell line not stated here;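 also: phosphodiesterase inhibitor Ro 20-1724 added with compounds to block cAMP breakdown; potency is read from the fitted curve at half-maximal effect; nearly all actives have a fitted effect of over 60% in size; about a fifth of the inactives were tested at one dose only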
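Cells in DMEM/10% FBS with G418 were pretreated with compounds in DMSO plus […] (300 uM stock) for 30 min at 37C. cAMP was measured by HTRF (cAMP-d2 plus anti-cAMP antibody-K) after 30 min at room temperature.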
ClpP mod: qHTS Assay for Activators of ClpP | ATP-dependent Clp protease proteolytic subunit (Bacillus subtilis (strain 168)), P80244 | purified B. subtilis ClpP, FRET peptide cleavage, 20 min | Potency, µM (top dose mostly 57.5 µM), for inactives: top-dose activity change, negative = active | hit rate 1.9% among 340,000; active = well fitted falling curve with a large enough effect; inconclusive = small, poorly fitted or top-dose-only effect; inactive = no such curve, though single readings can be large or run the other way; also: potency is read from the fitted curve at half-maximal effect; the source files actives as falling curves though it sought activators and does not explain the sign; nearly all actives have a fitted effect of over 65% in size; many hits overshoot -100%
Target sequence (P80244 whole entry, looked up): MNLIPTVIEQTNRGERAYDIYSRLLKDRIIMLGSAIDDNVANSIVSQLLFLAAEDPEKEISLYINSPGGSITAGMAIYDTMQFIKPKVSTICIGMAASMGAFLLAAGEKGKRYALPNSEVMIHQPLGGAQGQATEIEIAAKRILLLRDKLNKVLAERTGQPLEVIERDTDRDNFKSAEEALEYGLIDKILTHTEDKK
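FRET quenching reversal measured ClpP activation: 10 microg/mL B. subtilis ClpP at pH 8 with the FRET-FV decapeptide, read at 430 nm after 320 nm excitation. The 20-min minus 0-min signal was scaled between DMSO/no-enzyme wells and ADEP (5.8 microM final).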
gsp antag: qHTS for Antagonists of gsp, the Etiologic Mutation Responsible for Fibrous Dysplasia/McCune-Albright Syndrome: qHTS; gsp-mutant cells, cAMP HTRF, 30 min; control for the full effect not named in the record; Potency, µM (titrated, usually from 76.9 µM), for the others: at the top dose activity change, negative = inhibition, most hits filed as inhibitors; hit rate 0.4% among 340,000; active = falling curve of any shape with a large fitted effect; inconclusive = falling curve, mostly with a smaller effect; inactive = flat or rising curve; cell line not stated here;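 also: intracellular cAMP measured with PDE inhibitor Ro 20-1724 present during compound exposure; potency is read from the fitted curve at half-maximal effect; % is scaled to controls: 0 for no effect and ±100 for the full control effect; nearly all actives have a fitted effect of over 65% in size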
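Measurement of cellular cAMP by homogeneous time-resolved fluorescence following a 30 min compound exposure at 37C. The PDE inhibitor […] was present throughout; the assay buffer was DPBS with 0.05% BSA and 0.005% Tween 20.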
TRPV1 potentiator: HTS Assay for Compounds that Act as Potentiators of the Vanilloid Receptor 1; Transient receptor potential cation channel subfamily V member 1 (Homo sapiens), Q8NER1; TRPV1-expressing cells, Fluo-8 calcium influx, capsaicin EC20 potentiation; host cell line not named in the record; control for the full effect not named in the record; potentiation, % at 8.33 µM; hit rate 0.02% among 320,000; active means potentiation above 80%; inconclusive means 30% to 80%; inactive means below 30%; also: 0% is about no effect
Target sequence (Q8NER1 whole entry, looked up): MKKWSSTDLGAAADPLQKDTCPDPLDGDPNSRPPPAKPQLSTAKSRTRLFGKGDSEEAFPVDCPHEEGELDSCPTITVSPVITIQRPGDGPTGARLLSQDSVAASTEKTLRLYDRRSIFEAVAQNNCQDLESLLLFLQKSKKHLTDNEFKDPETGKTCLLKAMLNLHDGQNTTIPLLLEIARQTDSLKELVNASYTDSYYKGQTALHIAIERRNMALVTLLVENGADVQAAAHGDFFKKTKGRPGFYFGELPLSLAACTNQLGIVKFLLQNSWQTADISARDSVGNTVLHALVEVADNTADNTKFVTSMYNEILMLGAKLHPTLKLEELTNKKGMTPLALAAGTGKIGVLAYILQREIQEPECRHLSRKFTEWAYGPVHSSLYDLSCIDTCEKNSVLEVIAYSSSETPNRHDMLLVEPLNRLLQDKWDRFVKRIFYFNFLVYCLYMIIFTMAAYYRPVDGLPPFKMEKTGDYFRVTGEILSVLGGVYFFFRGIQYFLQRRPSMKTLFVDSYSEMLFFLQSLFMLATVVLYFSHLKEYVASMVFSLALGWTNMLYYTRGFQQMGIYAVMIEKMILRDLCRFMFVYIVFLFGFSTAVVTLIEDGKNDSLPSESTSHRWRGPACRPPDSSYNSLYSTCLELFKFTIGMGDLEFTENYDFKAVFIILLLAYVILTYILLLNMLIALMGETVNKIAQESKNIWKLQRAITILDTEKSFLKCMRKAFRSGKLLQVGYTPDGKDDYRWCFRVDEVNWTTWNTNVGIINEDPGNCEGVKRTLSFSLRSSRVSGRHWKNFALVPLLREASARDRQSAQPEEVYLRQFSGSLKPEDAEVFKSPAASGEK
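Fluo-8 calcium influx in TRPV1-expressing cells, kinetic read (ex 480/em 520 nm). Compound added and read 3 min for agonist activity, followed by capsaicin at EC20 final and 2 min further read for enhancement.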
* hit, by the source's call; & = joins results of further samples; [ ] = remark or other dose. Rows are unselected; any-hit rate near 5.3%.

What do the screens show for `CN1c2ccccc2C(=O)NC1c1ccc(Cl)cc1` (stereo not drawn)?
Sfp PPTase inh: 12%; Menin-MLL FL inh: -4.4; gsp agonist: 6%; ClpP mod: inconclusive; gsp antag: -2%; TRPV1 potentiator: 1

What do the screens show for `Cc1cc(-n2c(SCC(=O)Nc3ccc(Br)cc3)nc3n[nH]c(C)c3c2=N)ccc1Cl`?
CtBP-E1A inh: 2; Sfp PPTase inh: 24%; Menin-MLL FL inh: 0.0; gsp agonist: inconclusive; ClpP mod: -21%; gsp antag: 4%; TRPV1 potentiator: 7

How did CC(NC(=O)CSc1nc2ccccc2n1CCC#N)c1ccc(F)cc1 (stereo not drawn) do in these assays?
CtBP-E1A inh: 1; Sfp PPTase inh: 5%; Menin-MLL FL inh: -2.8; gsp agonist: -20%; ClpP mod: -0.8%; gsp antag: -4%; TRPV1 potentiator: 11

What do the screens show for `COc1cc(OC)cc(C(=O)N[C@H](C(=O)OCC(=O)Nc2ccc3c(c2)OCO3)C(C)C)c1`?
CtBP-E1A inh: 16; gsp agonist: -5%; gsp antag: -21%

How did COc1ccc(S(=O)(=O)N(C)C[C@H]2Oc3c(NC(=O)Nc4c(C)noc4C)cccc3C(=O)N([C@H](C)CO)C[C@@H]2C)cc1 do in these assays?
CtBP-E1A inh: 0; gsp agonist: 22%; ClpP mod: 1.5%; gsp antag: -14%

What do the screens show for `Cc1ccc(CNC(=O)c2ccc(N3CCC4(CC3)CC(c3ccccc3)=NO4)c(N)c2)cc1`?
CtBP-E1A inh: 1; Sfp PPTase inh: 19%; Menin-MLL FL inh: 0.8; gsp agonist: inconclusive; ClpP mod: 8.9µM*; gsp antag: -4%; TRPV1 potentiator: -2

How did S=c1[nH]nc(-c2ccccn2)n1/N=C/c1cccs1 do in these assays?
CtBP-E1A inh: -1; Sfp PPTase inh: -16%; gsp agonist: -28%; ClpP mod: -2.8%; gsp antag: -9%; TRPV1 potentiator: -6

What do the screens show for `CCCc1cc(=O)[nH]c(SCC(=O)Nc2sc3c(c2C(N)=O)CCCC3)n1`?
CtBP-E1A inh: -2; gsp agonist: -24%; ClpP mod: -1.8%; gsp antag: -10%

What do the screens show for `CCCCN(C)Cc1c(O)ccc2c(=O)c(-c3ccccc3OC)coc12`?
CtBP-E1A inh: 7; Sfp PPTase inh: -2%; Menin-MLL FL inh: 0.3; gsp agonist: inconclusive; ClpP mod: 3.9%; gsp antag: 4%; TRPV1 potentiator: 6

What do the screens show for `O=C(Nc1ccc2c(c1)CCCN2C(=O)c1cccs1)c1cccc(F)c1`?
CtBP-E1A inh: 22; Sfp PPTase inh: -7%; Menin-MLL FL inh: -9.2; gsp agonist: 1%; ClpP mod: -0.5%; gsp antag: -21%; TRPV1 potentiator: -12

No new results follow: an excerpt of the list.
What do the screens show for `CN1c2ccccc2C(=O)NC1c1ccc(Cl)cc1` (stereo not drawn)?
Sfp PPTase inh: 12%; Menin-MLL FL inh: -4.4; gsp agonist: 6%; ClpP mod: inconclusive; gsp antag: -2%; TRPV1 potentiator: 1

What do the screens show for `Cc1cc(-n2c(SCC(=O)Nc3ccc(Br)cc3)nc3n[nH]c(C)c3c2=N)ccc1Cl`?
CtBP-E1A inh: 2; Sfp PPTase inh: 24%; Menin-MLL FL inh: 0.0; gsp agonist: inconclusive; ClpP mod: -21%; gsp antag: 4%; TRPV1 potentiator: 7

Of the compounds above, these have fluorine.
How did CC(NC(=O)CSc1nc2ccccc2n1CCC#N)c1ccc(F)cc1 (stereo not drawn) do in these assays?
CtBP-E1A inh: 1; Sfp PPTase inh: 5%; Menin-MLL FL inh: -2.8; gsp agonist: -20%; ClpP mod: -0.8%; gsp antag: -4%; TRPV1 potentiator: 11

What do the screens show for `O=C(Nc1ccc2c(c1)CCCN2C(=O)c1cccs1)c1cccc(F)c1`?
CtBP-E1A inh: 22; Sfp PPTase inh: -7%; Menin-MLL FL inh: -9.2; gsp agonist: 1%; ClpP mod: -0.5%; gsp antag: -21%; TRPV1 potentiator: -12

(list continues)
What do the screens show for `COc1ccc(CCN2Cc3c(N)cccc3C2=O)cc1OC`?
CtBP-E1A inh: 11; Sfp PPTase inh: 10%; Menin-MLL FL inh: 1.4; gsp agonist: -10%[15.4 µM]; ClpP mod: -25%; gsp antag: -2%; TRPV1 potentiator: inconclusive

Results for Cc1c(C(c2ccc(N(C)C)cc2)c2c(C)n(C)n(-c3ccccc3)c2=O)c(=O)n(-c2ccccc2)n1C ?
CtBP-E1A inh: inconclusive; Sfp PPTase inh: -14%; Menin-MLL FL inh: 0.6; gsp agonist: -3%; ClpP mod: -0.1%; gsp antag: inconclusive; TRPV1 potentiator: 8

How did Cc1cc(/C=N/NC(=O)C(=O)NCc2ccccn2)c(C)n1-c1ccccc1 do in these assays?
CtBP-E1A inh: -1; Sfp PPTase inh: -6%; Menin-MLL FL inh: 1.1; gsp agonist: 28%[15.4 µM]; ClpP mod: 0.4%; gsp antag: 16%; TRPV1 potentiator: 6

What do the screens show for `O=C(COC(=O)c1ccc([N+](=O)[O-])o1)Nc1nc2ccccc2s1`?
CtBP-E1A inh: -6; Sfp PPTase inh: -13%; Menin-MLL FL inh: 1.0; gsp agonist: 10%[15.4 µM]; gsp antag: 4%; TRPV1 potentiator: 13

What do the screens show for `CCCC(=O)NCCc1ccc(F)cc1`?
CtBP-E1A inh: 0; Sfp PPTase inh: 6%; Menin-MLL FL inh: 4.1; gsp agonist: -8%; ClpP mod: 1.8%; gsp antag: 12%; TRPV1 potentiator: 18

How did CCN(CC)S(=O)(=O)c1ccc(OC)c(NC(=O)c2cc([N+](=O)[O-])ccc2N2CCOCC2)c1 do in these assays?
CtBP-E1A inh: 11; gsp agonist: inconclusive; ClpP mod: 1.9%

What do the screens show for `CC(=O)c1cccc(NC(=O)NCc2cccnc2)c1`?
CtBP-E1A inh: 7; Sfp PPTase inh: 0%; Menin-MLL FL inh: 1.0; gsp agonist: 28%; ClpP mod: -4.9%; gsp antag: 6%; TRPV1 potentiator: -23

What do the screens show for `CC1CCN(C(=O)CN(c2ccccc2)S(=O)(=O)N(C)C)CC1`?
CtBP-E1A inh: 7; Sfp PPTase inh: 7%; Menin-MLL FL inh: -2.8; gsp agonist: 26%; gsp antag: 5%; TRPV1 potentiator: -3

Results for C[C@@H](CSc1ccc(Br)cc1)CN1CC[C@H](O)CCC1=O ?
CtBP-E1A inh: 4; gsp agonist: 45%; ClpP mod: 0.3%&0.7%; gsp antag: 11%; TRPV1 potentiator: 0

What do the screens show for `Cc1cc(C)nc(SCC(=O)Nc2nc(-c3ccccc3)c(-c3ccccc3)o2)n1`?
CtBP-E1A inh: 1; Sfp PPTase inh: -12%; Menin-MLL FL inh: -2.3; gsp agonist: -7%; ClpP mod: -24%; gsp antag: -27%; TRPV1 potentiator: 26

What do the screens show for `COc1ccc(NC(=O)CN(C)C(=O)/C=C/c2cn(Cc3ccccc3)nc2-c2cccnc2)cc1`?
CtBP-E1A inh: 5; gsp agonist: inconclusive; ClpP mod: 13%; gsp antag: -16%; TRPV1 potentiator: -4

What do the screens show for `O=c1[nH]c(CSc2ncccn2)nc2c1cnn2-c1ccccc1`?
CtBP-E1A inh: -12; Sfp PPTase inh: -63%; Menin-MLL FL inh: inconclusive; gsp agonist: -3%[15.4 µM]; ClpP mod: -5.3%; gsp antag: 5%; TRPV1 potentiator: 7

Results for CC(NS(=O)(=O)c1ccc(Br)cc1)C(N)=O (stereo not drawn) ?
CtBP-E1A inh: 2; Sfp PPTase inh: 10%; Menin-MLL FL inh: 0.8; gsp agonist: 1%; ClpP mod: 4.9%; gsp antag: 11%; TRPV1 potentiator: 1

How did Cc1ccc(S(=O)(=O)N2CCN(C3CC(=O)N(Cc4ccccc4)C3=O)CC2)cc1C (stereo not drawn) do in these assays?
CtBP-E1A inh: 0; Sfp PPTase inh: 18%; Menin-MLL FL inh: -8.2; gsp agonist: 3%; ClpP mod: -0.1%; gsp antag: -11%; TRPV1 potentiator: -1

Results for CC(=O)N1CCN(C(=O)c2ccc(Cl)c(S(=O)(=O)N3CC(C)OC(C)C3)c2)CC1 (stereo not drawn) ?
CtBP-E1A inh: -4; gsp agonist: 5%[15.4 µM]; ClpP mod: -1.1%; gsp antag: 5%

What do the screens show for `CC(/C=C1\SC(=S)N(NS(=O)(=O)c2ccc(C)cc2)C1=O)=C\c1ccccc1`?
CtBP-E1A inh: -2; Sfp PPTase inh: -5%; Menin-MLL FL inh: 3.8; gsp agonist: -1%[15.4 µM]; gsp antag: inconclusive; TRPV1 potentiator: 11

How did CCOc1ccc(CCNC(=O)CS(=O)Cc2nc(-c3ccc(OC)c(OC)c3)oc2C)cc1OCC (stereo not drawn) do in these assays?
Sfp PPTase inh: 3%; gsp agonist: 1%; ClpP mod: inconclusive; gsp antag: 0%; TRPV1 potentiator: -16

How did CCc1cccc(C)c1NC(=O)Nc1c(Br)cnn1C do in these assays?
Sfp PPTase inh: 6%; Menin-MLL FL inh: -6.1; gsp agonist: -7%; ClpP mod: 0.7%; gsp antag: 3%; TRPV1 potentiator: 18

Results for COc1cccc2cc(-c3nnc(SCC(=O)Nc4cc(C(F)(F)F)ccc4Cl)n3N)oc12 ?
CtBP-E1A inh: -1; Sfp PPTase inh: 13%; Menin-MLL FL inh: 1.2; gsp agonist: -17%; ClpP mod: -11%; gsp antag: 7%; TRPV1 potentiator: inconclusive

Screening results as filed in PubChem BioAssay.
